FGF22 binding: binders of human FGF22 protein, primary screen, FGF22 synaptogenesis inhibitor project, biophysical, thermal shift, single point; Fibroblast growth factor 22 (Homo sapiens), Q9HCT0; recombinant FGF22 thermal shift, SYPRO orange fluorescence; percent of sucrose octasulfate shift, DMSO zero; calls only at 9.99 µM; 340,000 tested, 1.5% active; AID 651658, 2012;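 active = melting point raised past a set limit in the mean and every replicate; inconclusive = no clear call; three in four hits are not shown here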
Target sequence (Q9HCT0 whole entry, looked up): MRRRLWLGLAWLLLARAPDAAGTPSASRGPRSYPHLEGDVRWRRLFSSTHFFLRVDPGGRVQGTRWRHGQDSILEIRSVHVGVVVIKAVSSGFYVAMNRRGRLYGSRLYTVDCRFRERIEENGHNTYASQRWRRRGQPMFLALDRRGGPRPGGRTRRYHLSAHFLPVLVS
MLL AF4-AF9 inh: inhibitors of AF4 peptide binding to AF9, primary screen, biochemical, AlphaScreen, biotin-AF4 peptide, FLAG-AF9, single point. inhibition, % at 10 µM. 350,000 tested, 0.47% active. Protein AF-9 (Homo sapiens), P42568;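 active = every replicate reaching a set inhibition limit, whatever the replicate mean, cut at about 25% in these data; inconclusive = mean inhibition reaches that limit but some replicates miss it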;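 also: 0% = plate neutral control median and 100% = total signal loss; the record names both 10 and 1 µM as test concentration; the first replicate is given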
Ecoli growth: E. coli growth inhibition, primary screen, OD600; Escherichia coli growth, 23 h; hits give low values; 330,000 tested, 0.21% active; OD600 absorbance (test concentration not listed); AID 1053175, 2014;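 active = OD600 absorbance below the run mean of sample wells minus 3.6 SD, in any replicate, cut at about 0.56 in these data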;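 also: stock transfer was 300 nL into about 60 µL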
ALR H2O2 inh: inhibitors of human ALR sulfhydryl oxidase, primary screen, biochemical, H2O2 detection, HRP-luminol luminescence, single point; FAD-linked sulfhydryl oxidase ALR (Homo sapiens), P55789; purified ALR, DTT oxidation; inhibition, % (concentration not given with the values); 290,000 tested, 3.8% active; AID 485317, 2010;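 active = mean and each replicate at 75% or more; inconclusive = only one of the two met; inactive = neither met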;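 also: stock transfer was 7.5 nL into about 7.5 µL; 0% = neutral wells and 100% = wells with inactivated enzyme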
Target sequence (P55789 whole entry, looked up): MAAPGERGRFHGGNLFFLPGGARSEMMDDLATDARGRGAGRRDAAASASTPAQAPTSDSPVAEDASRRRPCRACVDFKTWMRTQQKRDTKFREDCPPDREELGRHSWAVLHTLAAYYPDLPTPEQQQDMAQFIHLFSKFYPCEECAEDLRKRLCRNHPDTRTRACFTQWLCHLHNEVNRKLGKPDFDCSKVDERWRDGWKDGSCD
rRNA inh HTS: reduced GFP signal of wild-type E. coli, primary screen, bacterial rRNA inhibitor project, GFP/RFP fluorescence, OD600, single point | E. coli WT GFP vs humanized-ribosome RFP mutants, 24 h; hits give low values; DMSO median 0, no signal -100 | AID 720706, 2013 | GFP signal change (wild-type ribosome), % (test concentration not listed) | 350,000 tested, 1.6% active;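 active = significant combined selectivity score with lowered wild-type GFP, culture density cut under 30%, mutant RFP and density less affected; inactive = any of these conditions unmet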; also: one replicate is shown; some compounds called inactive have numbers as strong as hits
Vif TR-FRET: inhibitors of Vif binding to APOBEC3G peptide, primary screen, biochemical, TR-FRET, GST-Vif 1-94, biotin-A3G peptide, dose response retest (AID 1117319) | TR-FRET GST-Vif / biotin-A3G peptide binding; higher % means a stronger effect; test concentration not given here; strong numbers were not always called active | Virion infectivity factor (Human immunodeficiency virus type 1 group M subtype B (isolate … | 260,000 tested, 0.57% active | inhibition, %; hits with a dose series show IC50 in µM;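 active = above the screen mean plus three standard deviations and confirmed in dose response; inconclusive = results disagree or hit not tested in dose response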;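 also: Vif residues 1-94 fused to GST binding biotinylated APOBEC3G peptide 110-148; 0% = full assay without inhibitor and 100% = GST in place of GST-Vif; retest series ran down from 100 µM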
HNF4A DNA FP: change in binding of human HNF4A to DNA, primary screen, biochemical, fluorescence polarization, FITC-DNA; Hepatocyte nuclear factor 4-alpha (Homo sapiens), P41235; 1 h; activity change, % at 10 µM; 360,000 tested, 0.3% active; in the data active = activity change above about 30%, passing the limit was not always enough;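 also: controls were the assay level and a saturating level of protein; the project sought stronger binding though the title names inhibitors; some compounds called inactive have numbers as strong as hits; positive values seem to mean higher polarization but the record does not say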
Target sequence (P41235 whole entry, looked up): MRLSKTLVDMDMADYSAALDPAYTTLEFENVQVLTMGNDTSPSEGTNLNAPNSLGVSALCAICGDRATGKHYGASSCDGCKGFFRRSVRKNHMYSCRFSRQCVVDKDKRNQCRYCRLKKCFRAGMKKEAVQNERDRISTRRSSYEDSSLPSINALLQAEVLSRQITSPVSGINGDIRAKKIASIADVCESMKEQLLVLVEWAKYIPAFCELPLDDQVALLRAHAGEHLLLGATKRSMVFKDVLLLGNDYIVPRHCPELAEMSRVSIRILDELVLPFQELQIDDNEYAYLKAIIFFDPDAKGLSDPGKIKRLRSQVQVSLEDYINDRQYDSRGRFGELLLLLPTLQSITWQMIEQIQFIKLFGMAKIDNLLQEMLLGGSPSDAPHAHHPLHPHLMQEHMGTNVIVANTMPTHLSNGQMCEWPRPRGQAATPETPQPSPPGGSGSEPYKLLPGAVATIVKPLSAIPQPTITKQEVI
rRNA inh HTS OD600: second read-out of rRNA inh HTS, no call of its own (marks repeat the call); OD600 change, %; measured here: OD600 growth;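 optical density of the mix in the first replicate; 0 = DMSO median and -100 = no signal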
rRNA inh HTS RFP: further read-out of rRNA inh HTS, marked with its call; RFP signal change, %; measured here: RFP humanized mutant strains;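 first replicate; 0 = DMSO median and -100 = no signal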
An asterisk follows results filed as active; i = inactive; u = inconclusive; x = not tested or not shown; & = joins results of further samples. This is a subset; rates above refer to the full screens.

SMILES	FGF22 binding	MLL AF4-AF9 inh	Ecoli growth	ALR H2O2 inh	rRNA inh HTS	rRNA inh HTS OD600	rRNA inh HTS RFP	Vif TR-FRET	HNF4A DNA FP
Cc1ccc(Cn2c(C(C)Nc3nc(C)cs3)nc3cc(Cl)c(Cl)cc32)cc1 (centres undefined)	i	-6.5	0.74	10	-27	-37	0.6	x	x
C[C@H]1CN([C@@H](C)CO)S(=O)(=O)c2ccc(C3=CCCC3)cc2O[C@@H]1CN(C)Cc1cncnc1	i	-0.1	x	x	0	-4	3.9	x	x
CCCNC(=O)Nc1ccc2c(c1)OC[C@@H](C)N(Cc1cccnc1)C[C@H](C)[C@@H](OC)CN(C)C2=O	i	-2.6	x	x	0	1	-1.7	x	x
Cc1nn(-c2ccccc2)c(=O)c2ccccc12	x	0.4	0.7	1	16	6	2.6	-5%	-0.2
CC(=O)Nc1ccc(-c2ccnc3c2CC(C)(C(=O)NCc2ccco2)O3)cc1 (centres undefined)	i	3.2	x	x	-8	-13	-1.7	x	1.7
Cn1cccc1-c1nc2ccc(NC(=O)c3ccc([N+](=O)[O-])cc3)cc2[nH]1	x	x	x	11	x	x	x	27%	1.2
CN(C)C(=O)CCc1ccc2c3c([nH]c2c1)[C@]1(C)[C@@H](C(=O)N2CCOCC2)C[C@H](CC(=O)NCCC2=CCCCC2)C(=O)N1CC3	i	-2.6	0.7	x	3	1	0.2	5%	-0.5
Cc1cc(C)n2nc(-c3ccc(F)cc3)cc2n1	i	-6.4	x	x	10	13	0.0	3%	1.1
COc1ccc(NC(=O)N(C)C[C@@H]2Oc3ccc(NS(=O)(=O)c4cn(C)cn4)cc3C(=O)N([C@H](C)CO)C[C@H]2C)cc1	i	-7.5	x	x	5	-2	-1.1	x	x
O=C(NCc1ccccc1Cl)c1cnccc1C(F)(F)F	i	x	0.68	2	16	14	6.6	1%	2.2
Cc1cc(C)cc(OCC(=O)OCC(=O)NC2CCCCCCC2)c1	x	-8.1	0.69	-2	1	3	2.0	7%	2.7
Cc1cccc(OCc2n[nH]c(=S)n2C2CCCCC2)c1	i	-14	0.69	9	-34	-63	-2.8	x	-0.2
Cc1ccc2cc(CN(CCO)Cc3nnnn3Cc3ccc(F)cc3)c(=O)[nH]c2c1	x	x	0.7	-37	4	2	-1.2	0%	1.7
O=C(CC(SCc1ccco1)c1ccc(O)cc1)c1cccs1 (centres undefined)	x	x	0.69	96*	x	x	x	-2%&7%	-0.1
Cc1ccc2c(c1)[C@H]1[C@H](CO2)[C@H](c2ccccc2)[C@]2(C)C(=O)Nc3ccc(F)cc3C(=O)N12	i	-0.6	x	x	x	x	x	x	2.3
Fc1ccc(/C=N/Nc2nccnc2Cl)cc1	i	2.8	x	9	1	9	-3.6	x	1.5
O=C(COC(=O)c1cc(F)c(F)cc1Cl)NC1CC1	i	-4.8	0.68	-4	14	12	1.2	10%	0.0
CCC1CCCCN1C(=O)CSc1nnc(-c2ccco2)o1 (centres undefined)	x	x	0.73	9	x	x	x	u	-2.9
CCC1CN(C)C2Cc3c([nH]c4ccccc34)C(=O)CC1C2C(=O)OC (centres undefined)	i	2.5	0.73	4	x	x	x	4%	1.7
CC(C)NC(=O)N(C)C[C@@H]1Oc2c(NC(=O)C3CCCCC3)cccc2C(=O)N([C@H](C)CO)C[C@@H]1C	i	-1.0	x	x	2	14	-4.6	x	x
COC(=O)c1sc(S(=O)(=O)NCCCN(C)C)c(C(=O)OC)c1C	i	-0.4	0.7	-5	10	0	-0.9	11%	1.7
C[C@H]1CN([C@@H](C)CO)C(=O)c2cc(NC(=O)CCN3CCOCC3)ccc2O[C@H]1CN(C)Cc1ccc(Cl)c(Cl)c1	i	1.0	x	x	-5	-13	1.8	x	x
C[C@H]1CN([C@@H](C)CO)C(=O)c2cccc(NC(=O)NC3CCCCC3)c2O[C@@H]1CN(C)C(=O)Nc1ccccc1	i	-2.1	x	x	4	0	-0.6	x	x
O=C(CCN1CCN(C/C=C/c2ccccc2)CC1)Nc1cccc(F)c1	i	3.1	0.7	0	-1	-10	7.6	-5%	-2.7
CO[C@H]1CN(C)C(=O)c2ccc(NS(C)(=O)=O)cc2OC[C@@H](C)N(C(=O)C2CCCC2)C[C@H]1C	i	-1.6	x	x	-1	-1	0.2	x	x
Cc1ccc(OCCOCCOc2ccc(Br)cc2/C=N\NC(=O)c2ccncc2)cc1	x	x	x	-6	x	x	x	22%	2.1
CN(c1ccccc1)S(=O)(=O)c1ccc(C(=O)NCc2ccccn2)cc1	i	1.1	0.7	x	0	3	-1.8	-11%	-11
C[C@H](CO)N1C[C@H](C)[C@@H](CN(C)Cc2ccc(C(F)(F)F)cc2)Oc2ccc(NC(=O)c3ccncc3)cc2C1=O	i	-2.4	x	x	-3	-9	4.2	x	x
CCNC(=O)[C@H]1[C@H](CO)[C@H]2Cn3c(ccc(-c4cccc(OC)c4)c3=O)[C@H]2N1S(C)(=O)=O	i	-1.5	x	x	3	9	1.7	x	x
Cn1cnc(S(=O)(=O)N2C[C@@H](O)COC[C@@H]3O[C@@H](CC(=O)NC4Cc5ccccc5C4)CC[C@H]32)c1	i	-2.5	x	x	8	12	-3.9	x	x
O=C(Nc1ccc(-c2ccccc2)cc1)c1ccco1	i	-1.8	0.69	x	2	1	0.2	u	-0.2
CCCCN1C(=O)C(C)=C(C)C1OCCc1ccc(OC)c(OC)c1 (centres undefined)	i	-6.9	0.67	x	3	-2	-1.7	x	-1.8
CC(=O)Nc1c(-c2ccccc2)c2cc(Br)ccc2[nH]c1=O	i	4.9	0.67	x	12	5	0.5	x	5.2
Cc1nc(CNS(=O)(=O)c2cccs2)cs1	i	1.4	0.71	-4	8	10	1.4	0%	0.6
O=C(COC(=O)C1CC2C=CC1C2)Nc1ccc([N+](=O)[O-])cc1 (centres undefined)	i	2.1	0.71	0	-31*	-3.9*	-0.8*	-7%	-1.1
Cc1nc2ccccc2n1Cc1ccccc1	i	1.4	0.64	-1	-7	-9	-0.3	x	4.9
CC1(C)CC(=O)C(C=NCC2CCN(C(=O)Cc3ccccc3)CC2)=C(O)C1	i	-2.2	0.68	-9	8	9	-0.7	-3%	237
CN(C)C(=S)Nc1ccc(S(=O)(=O)N2CCCCC2)cc1	i	-0.4	0.66	-1	-18	-24	-3.3	19%	-1.8
COc1cccc(CNc2ccccn2)c1O	i	4.6	x	62	-12	-11	-5.4	1%	-2.0
Cc1ccc(S(=O)(=O)N(C)C[C@H]2OCCCC[C@@H](C)Oc3ccc(NC(=O)c4ccccc4)cc3C(=O)N([C@@H](C)CO)C[C@@H]2C)cc1	i	-0.2	x	x	2	1	2.5	x	x
C[C@@H]1CCCCO[C@@H](CN(C)Cc2ccccc2)[C@@H](C)CN([C@@H](C)CO)C(=O)c2cc(NS(=O)(=O)c3cn(C)cn3)ccc2O1	i	-2.7	x	x	3	2	-0.7	x	x
Cc1ccc(S(=O)(=O)Nc2cccc3c2O[C@@H](CN(C)S(C)(=O)=O)[C@@H](C)CN([C@@H](C)CO)C3=O)cc1	i	-2.7	x	x	1	-2	-1.4	x	x
CCN(C(=O)COC(=O)/C=C/c1cnc2ccccc2n1)c1ccccc1	i	0.6	0.67	13	2	11	13	-3%	1.4
C[C@@H]1CCCCO[C@@H](CN(C)C(=O)C2CCCCC2)[C@@H](C)CN([C@@H](C)CO)C(=O)c2cc(NS(C)(=O)=O)ccc2O1	i	-2.7	x	x	2	18	1.1	x	x
COCCNC(=S)NC(=O)CC12CC3CC(CC(C3)C1)C2	x	x	0.68	-2	x	x	x	-4%	5.7
O=C(c1cccnc1)N1C[C@H]2[C@@H](c3ccccc31)[C@@H](CO)N2C(=O)CN1CCOCC1	i	-1.8	x	x	4	9	-2.1	x	x
COc1cccc(NC(=O)N[C@@H]2CC[C@H](CC(=O)NCc3ccccn3)O[C@H]2CO)c1	i	-1.3	x	x	2	0	-2.9	x	x
C=CC[C@@H](CC(=O)N[C@@H](CO)Cc1ccccc1)C(=O)N[C@@H](COC(=O)[C@@H](CC=C)CC(=O)OC(C)(C)C)Cc1c[nH]c2ccccc12	i	1.7	0.75	2	-4	2	-0.5	-2%	-2.1
CC1(C(=O)Nc2ccc(Cl)c(C(F)(F)F)c2)Cc2c(-c3cccc(C(N)=O)c3)ccnc2O1 (centres undefined)	i	0.7	x	x	-29	-39	-3.7	x	6.3
CC(=O)Nc1cccc(-c2ccnc3c2CC(C)(C(=O)NCCN(C)C)O3)c1 (centres undefined)	i	-0.2	x	x	14	18	4.6	x	-3.1
CCN(CC)C(=O)c1ncn2c1C(=O)NC[C@@H]2C	i	-2.0	x	x	17	8	2.4	x	x
O=C(NC1CCCCC1)N1CCc2ccccc2C1	i	1.0	0.71	44	-5	-21	8.8	4%	1.7
Cc1cc(S(=O)(=O)Nc2cc(C)c(O)c(C)c2)c(C)s1	x	x	0.65	77*	x	x	x	-4%	0.7
O=C(NC1CCN(Cc2ccccc2)CC1)c1ccc(N2CC3CC(C2)c2cccc(=O)n2C3)c([N+](=O)[O-])c1 (centres undefined)	i	-0.5	0.69	-2	1	-2	0.0	-2%	1.3
CCCn1c(SCC(=O)N(CC)c2c(N)n(Cc3ccccc3)c(=O)[nH]c2=O)nnc1-c1ccncc1	i	-1.2	0.65	x	x	x	x	x	-5.5
COc1ccc(OC)c(NC(=O)c2cccc3c2C(=O)N(C2CCCCC2)C3)c1	i	8.2	0.71	-2	-6	-18	1.1	x	0.7
O=S1(=O)CCOCCCN1Cc1ccccc1	i	-2.6	0.66	x	16	12	-1.1	x	-2.1
CC1CCN(C(=O)CSc2nc(C(C)C)nc3c2c(=O)n(C)c(=O)n3C)CC1	i	0.1	0.69	-4	-4	-1	-1.3	-1%	0.7
CCCNC(=O)Nc1ccc2c(c1)OC[C@@H](C)N(C(=O)c1ccccc1F)C[C@@H](C)[C@@H](OC)CN(C)C2=O	i	-2.8	x	x	3	2	0.0	x	x
Cc1ccc(NC2=NCC(=O)N2Cc2ccc3c(c2)OCO3)c(C)c1	x	x	0.75	0	x	x	x	11%	-0.2

Other records:
SMILES	FGF22 binding	MLL AF4-AF9 inh	Ecoli growth	ALR H2O2 inh	rRNA inh HTS	rRNA inh HTS OD600	rRNA inh HTS RFP	Vif TR-FRET	HNF4A DNA FP
Cc1cc2c(c(=O)o1)[C@@]1(C(=O)N(C)c3ccccc31)C1=C(CCC1=O)O2	i	-8.4	x	x	14	16	-0.5	x	x
COCCNC(=O)CN(CCc1ccccc1)S(=O)(=O)c1ccc(Br)cc1	i	-5.4	0.72	-9	3	1	-1.1	x	2.4
CS(=O)(=O)N(CC(=O)Nc1cccnc1)c1ccc2c(c1)OCCO2	i	-0.5	0.7	-17	6	-1	-2.6	2%	-1.2
CCCCCCCCCCCCCCCC[N+](C)(C)CC	i	-0.1	0.061*	-29	-58	-77	-17	x	5.5

High-throughput results: PubChem BioAssay, several laboratories
